Marburg entry inh: inhibitors of Marburg virus binding or cell entry | Marburg virus pseudotyped entry inhibition, cell reporter; control for the full effect not named in the record; about a third of the inactives were read at about 46 µM | Potency, µM (highest dose often 37.8 µM), without a hit: at the top dose activity change, negative = inhibition, hits mostly inhibitors | 1.8% of 300,000 active | AID 540276; active = well fitted inhibition curve with a large enough effect; inconclusive = small, poorly fitted or top-dose-only effect, or effect the other way; inactive = flat fitted curve, though single readings scatter; tested in HEK293 cells; about a fifth of its hits are not listed in these tables; note: % is set by controls: 0 for no effect and ±100 for the full control effect; luciferase read-out
NS1 inh: inhibitors of influenza NS1 protein function; Potency, µM (top dose mostly 46.1 µM), for the others: at the highest dose activity, positive = more growth; 0.4% of 270,000 active; S. cerevisiae slowed by influenza A NS1, growth recovery by OD600; AID 2326; note: actives are rising curves; nearly all actives have a fitted effect of over 50% in size
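A cell-based growth assay was used: compounds that relieve NS1-induced slow growth of budding yeast raise OD600. Assay medium was yeast nitrogen base with ammonium sulphate and -URA supplement, pH 6.0, with 2% galactose.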
LASV entry inh: Lassa virus entry inhibition | Lassa virus pseudotype entry inhibition, cell reporter; control for the full effect not named in the record | Potency, µM (series often up to 37.9 µM), for the others: top-dose activity change, negative = inhibition, actives largely listed as inhibitors | AID 540256 | 1.2% of 300,000 active; active means well fitted inhibition curve with a large enough effect; inconclusive means small, poorly fitted or top-dose-only effect, or effect the other way; inactive means flat fitted curve, though single readings scatter; tested in HEK293 cells; note: % is set by controls: 0 for no effect and ±100 for the full control effect; nearly all actives have a fitted effect of over 50% in size; luciferase read-out
Cruzain Triton: inhibitors of Trypanosoma cruzi cruzain with detergent | P25779 | 0.43% of 200,000 active | purified cruzain, Z-FR-AMC fluorescence, 0.01% Triton | Potency, µM, without a hit: max response, negative = inhibition, usual class: inhibitors; active = well fitted curve in the direction sought with a large enough effect; inconclusive = small, poorly fitted or top-dose-only effect, or another doubt; inactive = no such curve, though single readings can be large; an effect the other way counts as inactive or inconclusive;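 note: plate controls were neutral wells for no effect and buffer without enzyme for full effect; nearly all actives have a fitted effect of over 40% in size; top concentration of the series not given in the record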
Target sequence (P25779 123-467 limits assumed): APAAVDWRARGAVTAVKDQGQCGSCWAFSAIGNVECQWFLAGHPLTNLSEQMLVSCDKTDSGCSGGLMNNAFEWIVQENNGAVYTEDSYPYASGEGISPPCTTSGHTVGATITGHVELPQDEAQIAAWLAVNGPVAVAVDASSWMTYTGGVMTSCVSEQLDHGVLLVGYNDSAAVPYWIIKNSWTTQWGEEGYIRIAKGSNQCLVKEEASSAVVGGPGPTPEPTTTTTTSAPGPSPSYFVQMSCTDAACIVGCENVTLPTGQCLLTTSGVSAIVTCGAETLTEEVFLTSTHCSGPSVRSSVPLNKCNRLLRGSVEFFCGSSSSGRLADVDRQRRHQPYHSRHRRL
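Enzyme 1.5 nM, Z-FR-AMC 2 uM, NaOAc 100 mM pH 5.5, DTT 5 mM, Triton X-100 0.01%; 15 min RT compound preincubation; kinetic ex360/em450, 60 s delta.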
2A StopGo: lowers the luciferase signal of an FMDV 2A StopGo reporter; human cells with a luciferase reporter of 2A StopGo recoding; control for the full effect not named in the record; Potency, µM (doses to about 57.9 µM), without a hit: at the top dose signal change, negative = less light; 1.2% of 410,000 active; active = well fitted falling curve with a large enough effect; inconclusive = small, poorly fitted or top-dose-only effect; inactive = no such curve, though single readings can be large or run the other way; tested in HEK293T cells; note: % is set by controls: 0 for no effect and ±100 for the full control effect; nearly all actives have a fitted effect of over 45% in size; luciferase light after 4 h
RE007 growth inh: less growth of the S. pombe RE007 Vpr strain | S. pombe RE007 Vpr strain, BacTiter-Glo ATP luminescence, 24 h; control for the full effect not named in the record | Potency, µM (titrated, usually from 92.2 µM), inactives show at the highest dose activity change, negative = less growth | 0.21% of 360,000 active | AID 651644; active = well fitted falling curve with a large enough effect; inconclusive = small, poorly fitted or top-dose-only effect; inactive = no such curve, though single readings can be large or run the other way;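 note: % is set by controls: 0 for no effect and ±100 for the full control effect; nearly all actives have a fitted effect of over 50% in size; the assay follows cell death caused by Vpr and the record does not say whether a fall means rescue or toxicity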
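Fission yeast RE007 carrying one integrated HIV-1 vpr copy, seeded at OD 0.01 in PMG+AL medium with 23 nL pinned compound. Grown 24 h at 30 degrees; viability read by BacTiter-Glo luminescence after 5 min.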
Cruzain inh noDet: cruzain (T. cruzi) inhibition without detergent | P25779 | purified cruzain, Z-FR-AMC fluorescence, no detergent | Potency, µM, inactives show max response, negative = inhibition, usual class: inhibitors | 2.3% of 200,000 active | AID 1476; active = well fitted curve in the direction sought with a large enough effect; inconclusive = small, poorly fitted or top-dose-only effect, or another doubt; inactive = no such curve, though single readings can be large; an effect the other way counts as inactive or inconclusive;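 note: plate controls were enzyme without inhibitor for no effect and buffer without enzyme for full effect; nearly all actives have a fitted effect of over 40% in size; top concentration of the series not given in the record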
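Purified cruzain at 1.5 nM, pre-incubated 15 min with compound at room temperature in 100 mM sodium acetate pH 5.5, 5 mM DTT, 0.00005% Triton X-100. Reaction started with 2 uM Z-FR-AMC; AMC fluorescence increase over 60 s gives rate.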
SARS PLpro yeast: inhibitors of SARS-CoV papain-like protease in yeast | AID 485353 | 0.19% of 330,000 active | Potency, µM (titrated, usually from 32.9 µM), without a hit: at the highest dose activity, positive = growth rescue | S. cerevisiae expressing SARS-CoV PLpro, growth rescue; control for the full effect not named in the record; note: 0% is about no effect; nearly all actives have a fitted effect of over 55% in size; growth read by luminescence after 48 h
* hit, by the source's call; ? = inconclusive; nt = no result given; & = joins results of further samples; [ ] = dose if it differs, or a comment. Unless noted, calls come from the whole dose curve; as a rule, active means well fitted rising curve with a large enough effect; inconclusive means small, poorly fitted or top-dose-only effect; inactive means no such curve, though single readings can be large or run the other way. Potency is the fitted concentration of half-maximal effect.

SMILES | Marburg entry inh | NS1 inh | LASV entry inh | Cruzain Triton | 2A StopGo | RE007 growth inh | Cruzain inh noDet | SARS PLpro yeast
Cc1c(NS(=O)(=O)c2cc(C(=O)OCC(=O)N3CCC(C)CC3)ccc2Cl)c(=O)n(-c2ccccc2)n1C | -9%[46.1 µM] | nt | -14%[46.1 µM] | nt | 14% | -12% | nt | 0%
CN1c2ccsc2C(O)=C(C(=S)Nc2ccc(F)c(Cl)c2)S1(=O)=O | 16%[46.1 µM] | -99% | ? | -16% | ? | -24% | -2% | -27%
O=C(O)c1cccc(-n2cccc2/C=C2\NC(=O)N(Cc3ccc(F)cc3)C2=O)c1 | -18%[46.1 µM] | 5% | ? | nt | ? | 17% | nt | 0%
O=S(=O)(Nc1cccc2ccccc12)c1ccccc1 | -2%&-2% | -1% | 7% | nt | 37%[activator] | 0% | nt | 0%
Cc1ccc(S(=O)(=O)N2CCCCC2)cc1C(=O)NCC1CCCO1 (centres undefined) | -1% | 10% | 17% | nt | -3% | 1% | nt | -3%
COC(=O)CSc1nc(C)cc(N2CCOCC2)n1 | -5%[46.1 µM] | nt | 28%[46.1 µM] | nt | 8% | -18% | nt | 3%
CNC(=S)N1N=C(c2ccc(Br)cc2)CC1c1ccc(N(C)C)cc1 (centres undefined) | ? | 3% | -22%[46.1 µM] | nt | 2% | 3% | nt | 1%
CC1(c2ccc(OCC#N)cc2)C=C(c2ccc(OCC#N)cc2)n2nc(C(F)(F)F)nc2N1 (centres undefined) | ? | 10µM* | ? | -4.5% | ? | 31% | ? | -19%
COc1cc(NC(=O)c2cccc([N+](=O)[O-])c2C)ccc1NC(=O)c1ccco1 | ? | 19% | ? | 0.6% | 14% | 22% | -4% | 2.8µM*
COC(=O)c1c(-c2cc(OC)c(OC)c(OC)c2)c2ccc(OCc3ccccn3)cc2c(=O)n1-c1ccc(N)cc1 | ? | 25% | nt | -13% | nt | nt | ? | nt
CC(C)c1ccc(C(C)NCCS(=O)(=O)c2ccc(Cl)cc2)cc1 (centres undefined) | -18% | -14% | ? | nt | -29% | -6% | nt | -2%
NCCc1nnc(SCC(=O)Nc2ccc(Br)cc2)o1 | 7%[46.1 µM] | 5% | 9%[46.1 µM] | nt | -2% | 0% | nt | 1%
COc1ccc(C2C(C#N)=C(N)Oc3c2oc(CO)cc3=O)c(OC)c1OC (centres undefined) | ? | -13% | 15% | 0.6% | 0% | 6% | -4% | 0%
CCC1CN(C)C2Cc3c([nH]c4ccccc34)C(=O)CC1C2C(=O)OC (centres undefined) | nt | 1% | nt | nt | 0% | -16% | nt | 0%
COc1ccc(S(=O)(=O)Nc2nc3c(s2)CCCC3)cc1 | ? | nt | ? | nt | 48%[activator] | 25% | nt | 2%
COC(=O)CCCNC(=O)c1ccc2oc(CCCc3ccccc3)nc2c1 | -17% | -13% | -2% | nt | 28% | 2% | nt | 1%
N/C(=N\OC(=O)CCCC(=O)O)c1ncc(C(F)(F)F)cc1Cl | -1%[46.1 µM] | -1% | -14% | nt | 3% | 0% | nt | -1%
CCCCOc1ccccc1NC(=O)CSc1nnnn1C(C)(C)C | -22% | -34% | 19% | -6.3% | -23% | 32% | -9% | -4%
CC(=O)C1=C(O)C(=O)N(Cc2ccccc2)C1c1cccc([N+](=O)[O-])c1 (centres undefined) | nt | 13% | nt | nt | 26% | 99% | nt | -1%
O=C1NC(=O)N(CCNc2ncc(C(F)(F)F)cc2Cl)C(=O)C1/C=N/OCc1c(F)cccc1Cl (centres undefined) | 1% | -1% | 10% | 2.3% | ? | -1% | ? | 5%
CCCC(=O)Nc1ccc(N2CCN(C(=O)c3cccs3)CC2)cc1 | 9%[46.1 µM] | -2% | -8% | 0.5% | -18% | -2% | -2% | -4%
COc1ccc(CNC(=O)C(=O)NC2CCC(C)CC2)cc1 (centres undefined) | nt | 1% | nt | nt | -12% | 1% | nt | 0%
O=C(O)CCc1nc(-c2ccccc2)no1 | 2% | -15% | 4% | 4.6% | ? | 2% | -3% | 2%
NC1=NC(=O)/C(=C/c2ccc(Br)cc2)S1 | nt | 0% | nt | nt | 7% | -2% | nt | 0%
CC(C)CC(=O)Nc1nnc(S(=O)(=O)N(C)c2ccc(Cl)cc2)s1 | nt | 6% | -2%[46.1 µM] | -2.3% | -17%&1% | 12% | 2% | 1%
SMILES | Marburg entry inh | NS1 inh | LASV entry inh | Cruzain Triton | 2A StopGo | RE007 growth inh | Cruzain inh noDet | SARS PLpro yeast
OC[C@H]1O[C@@H](n2cnc3c(NC4CCCCC4)ncnc32)[C@H](O)[C@@H]1O | ? | -4% | 20% | 2.2% | 11% | nt | 0% | nt
Cc1cc(C)n2nc(S(=O)(=O)NC3CCCCC3)nc2n1 | nt | -1% | nt | -3.3% | 29% | 10% | -4% | 7%
Cc1ccc(N(Cc2ccccc2F)S(C)(=O)=O)c(C)c1 | -11%[46.1 µM] | -1% | ? | nt | 18% | -8% | nt | 1%
O=C1CSC(c2cn(-c3ccccc3)nc2-c2cc3ccccc3oc2=O)N1Cc1ccco1 (centres undefined) | ? | 13% | 7% | 28µM* | -9% | -14% | ? | -28%
CN(C)CCN(C(=O)c1ccc2c(c1)OCCO2)c1nc2c(Cl)cccc2s1 | -26% | -5% | 6% | nt | -15% | -15% | nt | 1%
O=C(c1cc(S(=O)(=O)N2CCCCC2)ccc1F)N1CCCCC1 | -11% | -4% | 23% | 4.8% | 43%[activator] | 20% | 0% | 6%
CNC(=O)c1cc(NC(=O)CCn2nc(-c3ccc(C)cc3)c3ccccc3c2=O)ccc1OC | ? | -2% | -10%[46.1 µM] | nt | -16% | -7% | nt | 0%
Cc1nc2ccccc2n1Cc1ccccc1 | nt | 2% | nt | nt | -21% | -1% | nt | 1%
COc1ccc(CN(C(=O)c2oc3ccccc3c2C)C2CCS(=O)(=O)C2)cc1OC (centres undefined) | ? | -16% | -16% | 9.5% | ? | 4% | ? | 2%
O=C(NC(=S)Nc1ccc(Br)cc1F)C1CCCCC1 | ? | nt | -27% | nt | 34%[activator] | 4% | nt | 1%
CCc1ccc(/C=C2\SC(=S)N(CCC(=O)Nc3cc(C)on3)C2=O)cc1 | -5%[46.1 µM] | nt | -2% | nt | ? | -6% | nt | -1%
O=C(NN/C(=N/S(=O)(=O)c1ccc(Cl)cc1)c1ccccc1)c1ccc(O)cc1 | 20µM* | -25% | ? | -0.4% | 95%[activator] | -9% | -11% | -38%
Cc1ccc(/C=c2\s/c(=C(/C#N)C(=O)N3CCCC3)n(Cc3ccco3)c2=O)s1 | ? | -10% | ? | -19% | 2% | 1% | ? | -2%
COc1ccc(Cn2cc(S(=O)(=O)c3ccc(Cl)cc3)c(=O)c3cc4c(cc32)OCO4)cc1 | 2%[46.1 µM] | nt | 10%[46.1 µM] | -1.5% | 34%[activator] | nt | ? | nt
Cc1ccc(NC(=O)Cn2nc(C(F)(F)F)c3c2CCCC3)cc1C | ? | nt | ? | -3.8% | -13% | nt | -15% | nt
COc1ccc(NC(=O)c2nnn(Cc3ccc(SC)cc3)c2N)c(OC)c1 | nt | ? | nt | -15% | -12% | 11% | ? | -1%
Cc1ccc(C(=O)/C=C2\NCCNC2=O)cc1 | -29% | -9% | ? | -5.0% | -8% | -5% | -11% | -5%
COC(=O)C(C(=O)OC)=C(/C=C/N(C)C)N(C)C | -21% | 2% | 4% | -6.5% | 7% | 2% | -6% | 8%
Clc1ccccc1Sc1ccc(-c2ccccn2)s1 | 2% | -3% | -4% | nt | 20% | 0% | nt | -2%
O=C(N/C(=C/c1ccccc1)C(=O)N1CCOCC1)c1ccc([N+](=O)[O-])cc1 | -10%[46.1 µM] | nt | -1% | nt | 38%[activator] | 2% | nt | 7%
COc1ccccc1NC(=O)C1CCCN(c2ncnc3c2nc2n3CCCCC2)C1 (centres undefined) | -13%[46.1 µM] | 5% | ? | nt | ? | -14% | nt | -1%
CCN1C(=O)CC(NCc2ccc(S(N)(=O)=O)cc2)C1=O (centres undefined) | nt | 0% | nt | nt | -6% | -7% | nt | 0%
Cc1cc(N(C)/N=C/c2ccccc2)nc(-c2ccccc2O)n1 | -11% | 1% | 5% | nt | -11% | -4% | nt | 0%
CCCCc1nnc(NC(=O)CS(=O)(=O)Cc2ccccc2)s1 | 6% | 0% | 22%[14.3 µM] | 0.6% | -8% | 13% | -7% | -4%
COc1ccccc1N1CCN(C2CCC(C)CC2)CC1 (centres undefined) | nt | -4% | nt | nt | 0% | -9% | nt | -3%
SMILES | Marburg entry inh | NS1 inh | LASV entry inh | Cruzain Triton | 2A StopGo | RE007 growth inh | Cruzain inh noDet | SARS PLpro yeast
CN(C)CCNC(=O)Cn1ccc2cc(S(=O)(=O)N3CCCCC3)ccc21 | nt | -1% | nt | nt | -12% | 26% | nt | -1%
COc1cccc(NC(=O)c2c(C(=O)Nc3ccccc3)sc3nc(C)cc(=O)n23)c1 | 2%[46.1 µM] | nt | -3%[46.1 µM] | -4.9% | -21% | nt | 4% | nt
CC(Oc1ccc(C(C)(C)C)cc1)c1ccnc2nc(/N=C/N(C)C)nn12 (centres undefined) | 1% | -31% | -12% | -1.3% | -23% | 6% | ? | -9%
CC(C)C(c1nnnn1Cc1ccco1)N1CCC(C(N)=O)CC1 (centres undefined) | ? | -4% | 2% | -1.7% | -7% | 7% | 5% | -8%
N#Cc1ccc(NC(=O)c2cc(-c3cccc(Cl)c3)on2)cc1 | ? | nt | 1%[46.1 µM] | -0.2% | 2% | nt | -1% | nt
Cc1c(NC(=O)Oc2ccccc2)sc(=S)n1C | 9% | 2% | -3% | 2.4% | nt | 0% | -6% | -3%
CN(C)CCCC1(O)c2ccccc2CCc2ccccc21 | ? | -1% | -3% | nt | -3% | -11% | nt | 0%
OCCC1CN(Cc2cccn2-c2cccnc2)CCN1Cc1ccc(F)cc1 (centres undefined) | nt | 4% | nt | nt | -13% | 11% | nt | -1%
COc1ccc(-c2csc(N(CCc3ccc(OC)c(OC)c3)C(=O)COc3ccccc3)n2)cc1 | ? | ? | -8% | -8.5% | -18% | -8% | ? | -2%
Cc1onc(-c2ccccc2Cl)c1C(=O)NCc1ccc(F)cc1 | 0%[46.1 µM] | -11% | -11%[46.1 µM] | nt | -10% | 8% | nt | -1%
Cc1c(C(=O)Nc2cc(F)ccc2F)sc2nc(-c3ccc(F)cc3)cn12 | nt | nt | 4%[46.1 µM] | 0.6% | 7% | nt | -7% | nt
